# ugtP null kill = compounds lethal to S. aureus RN4220 ugtP deletion mutant. OD600 growth, 16 h; some inactives read as strong as hits. growth inhibition, % (concentration not given with the values). 330,000 tested, 0.54% active;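 active = z-score under -3 and OD600 up to 0.15 on both plates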;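 also: plate controls were untreated wells for no effect and antibiotic for full effect; wells of about 80 µL received 100 nL stock; the first replicate is given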
# Autofluor counter = flagged as autofluorescent in microsphere protease counterscreen. compound autofluorescence counterscreen, microsphere flow cytometry; hits give high values. fluorescence intensity (concentration not given with the values). 360,000 tested, 3.1% active. AID 624483;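 active = at least 3 SD above the mean of all compounds, about 16000 in these data; inconclusive = too few beads counted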;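 also: 100 nL of 1 mM stock went into each well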
# BJeLR viability = BJeLR cell viability loss; 300,000 tested, 0.17% active; AID 1554; BJeLR (HRASV12) viability, CellTiter-Glo ATP luminescence, 48 h; reference of the scale not given here; inhibition, % (test concentration not listed);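 active = replicate mean above 50%; inconclusive = above 50% but judged a plate artefact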;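 also: 50 nL library stock added to about 25 µL; numbers are from one replicate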
# PrP UTR inh = inhibition of PrP 5' UTR reporter expression; cell-based PrP 5' UTR mRNA reporter, plate reader; inhibition, % (test concentration not listed); 340,000 tested, 0.35% active; AID 488862;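 active = every replicate at 50% or more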;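 also: 0 = median of the neutral control wells; tested in H4 reporter cells; numbers are from one replicate; inactives centre near -14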
# Sa RN4220 lethal = S. aureus RN4220 growth inhibition; OD600, 16 h; 330,000 tested, 0.33% active; AID 1259311; inhibition, % (test concentration not listed);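 active = z-score of -3 or lower and OD600 up to 0.18 on both plates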;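 also: plate controls were untreated cells for no effect and reference antibiotic for full effect; stock transfer was 100 nL into about 80 µL; one replicate is shown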
# Mtb hypoxia rep = reduces hypoxia-regulated biosensor signal in M. tuberculosis. fluorescence inhibition, % (test concentration not listed). M. tuberculosis hypoxia-regulated fluorescent reporter, fluorescence. AID 1159583. 300,000 tested, 0.1% active;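 active = 35 to 45% if threefold the growth effect, above 45% if 1.5-fold the growth effect; inactive = the rest, general growth blockers included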;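 also: wells of about 50 µL received 100 nL stock; 0% = vehicle wells and 100% = reference inhibitor wells; whole bacteria with a GFP reporter of the hypoxia response; strong numbers were not always called active; many hits fall short of the cut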
# Mtb hypoxia rep growth = recorded beside Mtb hypoxia rep, whose call it bears; growth inhibition, %; measured here: M. tuberculosis growth (absorbance);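 0% = vehicle and 100% = reference antibiotic; read after six days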
# The depositor's hits bear a star; ? = inconclusive; . = no result given.
# Every second line gives: ugtP null kill	Autofluor counter	BJeLR viability	PrP UTR inh	Sa RN4220 lethal	Mtb hypoxia rep	Mtb hypoxia rep growth
> O=C(Nc1cc(F)ccc1F)C1CCCN(c2ncnc3c2nc2n3CCCCC2)C1 (stereo unspecified)
→ -10	4465	4	-10	6.6	-5	2
> COc1ccc(-c2[nH]ncc2/C=C(/C#N)C(=O)NC2CCCCC2)cc1
→ -9	?	-7	14	-3.5	.	.
> Cc1c(Cl)cccc1N/C(=N/S(=O)(=O)c1cccs1)c1ccccc1
→ 11	4353	-6	-31	-0.2	17	10
> CC(=O)N1Cc2ccccc2C(C)CC12CCCCC2 (stereo unspecified)
→ 8	2009	-6	-17	6.6	2	-4
> CC(=O)Nc1ccc(N2C(=O)CC(N3CC(C)OC(C)C3)C2=O)cc1 (stereo unspecified)
→ -4	2870	7	-7	-12	25	-19
> OCC[C@@H]1C[C@H](O)[C@@H](O)[C@]2(Cc3ccccc3O2)O1
→ .	3951	5	-19	.	.	.
> CCC(C)[C@H]1CNC(=S)N1CCc1cc(C(F)(F)F)cc(C(F)(F)F)c1 (stereo partly specified)
→ .	4202	-4	8	.	.	.
> Cc1csc(NC(=O)CSc2nnc(-c3ccco3)n2C)n1
→ -4	3446	-1	-14	-0.6	-1	-5
> COc1ccccc1CNCC(O)(c1ccc(F)cc1)c1ccc(F)cc1
→ -1	3812	14	-9	2.5	-8	5
> O=C(NCc1ccc2c(c1)OCO2)c1ccc(CSCc2ccccc2Cl)o1
→ 17	2541	-8	-27	-1.9	-7	2
> Cc1ccc(-c2nn(-c3ccccc3)cc2C=NNC(=O)c2ccncc2)o1
→ -7	.	.	.	-3.4	.	.
> COC(=O)c1cccc(F)c1C(=O)c1cccc2ccccc12
→ 4	3797	.	-7	-8.1	21	9
> CCN(CC)S(=O)(=O)c1ccc2c(c1)nc(CCC(=O)OCC(=O)Nc1c(F)cccc1F)n2C
→ -1	2672	18	-10	4.1	4	2
> COc1cc(CC(=O)OCC(=O)NCc2cccs2)cc(OC)c1OC
→ 9	?	.	-21	1.8	8	6
> CCOC(=O)CNC(=S)N1CCn2c(nc3ccccc32)C1
→ 6	2567	-10	-16	1.6	-3	4
> O=C(Nc1ccc(Br)cc1)C1CCC(=O)N1Cc1ccccc1Cl (stereo unspecified)
→ -8	2532	-1	-12	-1.7	.	.
> Cc1cc(NC(=O)CN(C)S(=O)(=O)c2cnc[nH]2)ccc1Br
→ -1	4315	1	0	-1.2	12	11
> O=c1c2cn[nH]c2[nH]c(=S)n1-c1ccccc1
→ 3	4832	0	-8	3.3	13	5
> NCCCC[C@H]1CN=C(N)N1CCc1cccc2ccccc12
→ .	3047	3	-16	.	.	.
> COc1ccc(-c2nc(SC)n(C(=O)c3ccco3)n2)cc1
→ 5	3169	3	-44	4.3	.	.
> NC(=O)[C@@H]1[C@@H]2C(=O)N(c3ccc(F)cc3)C(=O)[C@@H]2[C@H]2C=Cc3ccccc3N21
→ 10	4798	4	6	1.3	18	-1
> O=C(c1cccc(Cl)c1)C1CCCN(Cc2ccc(N3CCNC3=O)cc2)C1 (stereo unspecified)
→ 4	4472	6	-8	-1.2	12	9
> Cc1c(Cl)cccc1NC(=O)C1C2C=CC(C2)C1C(=O)O (stereo unspecified)
→ 10	3839	0	-22	7.1	5	4
> Cc1ccc(S(=O)(=O)NC2=NCN(CCOC(=O)c3ccccc3)CN2)cc1
→ -1	10321	-1	.	6.7	-3	0
> CC12C=CC3(CN(Cc4ccccc4)C(=O)C3C1C(=O)NCc1ccco1)O2 (stereo unspecified)
→ -1	20657*	-1	14	0.8	-4	5
> O=C(O)COC(=O)C1C(c2ccccc2)C(C(=O)O)C1c1ccccc1 (stereo unspecified)
→ -7	4518	-4	-15	3.0	5	12
> Cc1ccnc(NC(=O)CCC2CCCCC2)c1
→ -4	8829	-2	-73	7.8	-3	9
> Cc1ccc(-n2c(SCC(N)=O)nc3c(oc4ccccc43)c2=O)cc1
→ 12	3378	11	-11	-0.7	-3	-4
> Cc1ccc(Cn2cccc2C=NNC(=S)Nc2ccc(C)cc2)cc1
→ 5	.	.	.	1.3	10	5
> CC(=O)Nc1ccc(NS(=O)(=O)c2cc(-c3cnc(C4CC4)o3)ccc2C)cc1
→ -2	5035	7	-19	0.0	5	9

# 4 entries picked at random from those above, as already listed:
# Every second line gives: ugtP null kill	Autofluor counter	BJeLR viability	PrP UTR inh	Sa RN4220 lethal	Mtb hypoxia rep	Mtb hypoxia rep growth
> CC(=O)Nc1ccc(NS(=O)(=O)c2cc(-c3cnc(C4CC4)o3)ccc2C)cc1
→ -2	5035	7	-19	0.0	5	9
> COc1cc(CC(=O)OCC(=O)NCc2cccs2)cc(OC)c1OC
→ 9	?	.	-21	1.8	8	6
> Cc1ccc(S(=O)(=O)NC2=NCN(CCOC(=O)c3ccccc3)CN2)cc1
→ -1	10321	-1	.	6.7	-3	0
> CCOC(=O)CNC(=S)N1CCn2c(nc3ccccc32)C1
→ 6	2567	-10	-16	1.6	-3	4

# (next part)
# Every second line gives: ugtP null kill	Autofluor counter	BJeLR viability	PrP UTR inh	Sa RN4220 lethal	Mtb hypoxia rep	Mtb hypoxia rep growth
> COc1cccc(CN2CCNC(=O)C2CC(=O)NCCCN2CCCC2=O)c1 (stereo unspecified)
→ -2	4344	5	-11	-1.1	2	-2
> CN(Cc1ccco1)C(=O)C(Cc1ccccc1)NS(=O)(=O)c1ccc2c(c1)CCC(=O)N2 (stereo unspecified)
→ 13	5537	6	-24	3.8	.	.
> Cc1cccc(OCc2nnc(SCC(=O)N3CCc4ccccc43)n2C)c1
→ 5	24057*	-7	-31	6.8	3	8
> COc1cccc(Nc2nc(N)c([N+](=O)[O-])c(N3CCOCC3)n2)c1
→ -11	3470	-15	-2	10	17	3
> COc1ccc(F)cc1S(=O)(=O)Nc1cc2c3c(c1)CCN3C(=O)CC2
→ 2	?	12	-10	7.0	1	1
> COCCSc1ccccc1C(=O)N1CCc2ccccc21
→ 0	3694	-1	7	-3.8	-3	8
> COc1ccc(C(C)=O)cc1COc1cccc2c1OC(C)(C)C2
→ -3	5935	2	-2	-1.2	8	7
> Cc1ccc(CC(=O)O/N=C(\N)c2ccncc2)cc1
→ 16	4349	-3	1	6.7	3	-2
> O=C1c2ccccc2C(=O)c2c1cccc2N1CCN(CCO)CC1
→ -6	11051	-1	-11	3.9	3	13
> CC1=C(C(=O)N2CCCC(CCC(=O)NCc3ccc(F)c(F)c3)C2)OCCO1 (stereo unspecified)
→ 4	4351	4	-4	2.2	8	12
> O=C1C(=O)N(CNc2cccnc2)c2ccccc21
→ 7	2190	14	-13	4.7	6	-1
> COc1cc(C2c3c(-c4ccccc4)n[nH]c3C(=O)N2c2ccc(C(=O)O)cc2)ccc1O (stereo unspecified)
→ 15	5953	-5	-11	7.0	3	5
> CCSc1nnc(NC(=O)CSc2nnc(Cc3cccn3C)n2CCc2ccccc2)s1
→ -12	20173*	0	-1	13	2	12
> CCOc1ccc(S(=O)(=O)NCCC(=O)NCc2cccnc2)cc1
→ -1	.	-4	-30	-2.4	-4	-8
> CCCCOc1ccc(CNC(=S)N/N=C/c2ccc(OC)c(OC)c2)cc1
→ .	2635	7	-22	.	.	.
> CCc1cc(C(=O)OC)c(NC(=O)CC2NCCNC2=O)s1 (stereo unspecified)
→ 3	21532*	5	-6	1.2	4	3
> CCOc1ccc(-n2c(SC)nc3c(c2=O)SCC3)cc1
→ 11	3183	-3	-16	2.8	18	5
> CC(C)OC(=O)CC(=O)c1sc2nc3c(cc2c1N)CN(C)CC3
→ 0	.	1	.	2.4	13	2
> O=C1CC(C(=O)N2CCCc3ccccc32)CN1c1ccc(F)cc1 (stereo unspecified)
→ 12	5021	-15	-11	0.8	8	14
> CCOC(=O)c1sc(NC(=O)CSc2ncccn2)c(C#N)c1C
→ -3	7651	5	-45	-1.1	-1	-10
> O=C(NCCCSc1ccccc1)c1cnc(Cl)c(Cl)c1
→ 6	3581	-9	-26	-1.6	6	2
> O=C(NN=Cc1c(F)cccc1F)c1ccccc1NS(=O)(=O)c1cccs1
→ -5	3385	.	-14	5.3	6	6
> Cc1noc(C)c1COC(=O)c1ccc2c(c1)OCCO2
→ 4	3345	.	-16	2.9	4	16
> CCCNC(=O)c1nc(C)n(-c2cc(Cl)cc(Cl)c2)n1
→ -5	5174	-2	-17	9.7	5	0
> COc1ccccc1NC(=O)C1CCN(S(=O)(=O)c2ccc3c(c2)NC(=O)C(C)S3)CC1 (stereo unspecified)
→ -3	6842	-5	5	-2.2	-5	9
> CNc1ccc(Br)cc(C(=O)/C=C/c2ccc(Cl)cc2Cl)c1=O
→ 14	4726	2	-41	9.1	16	9
> COc1ccc(/C=C/C(=O)Nc2ccccc2C(N)=O)cc1S(=O)(=O)N1CCOCC1
→ 11	?	.	-2	3.9	-2	-4
> COc1ccccc1NC(=O)COC(=O)c1cnccn1
→ 10	5967	-10	-32	5.3	2	1
> CCOC(=O)c1cnc2ccccc2c1Nc1ccc(C(=O)O)cc1
→ -6	4709	2	-14	10	10	8
> CCCN(CCC)C(=O)CSc1nc2n[nH]c(C)c2c(=N)n1-c1ccc(OC)cc1
→ 11	4142	-6	-6	-3.2	.	.
> CCOc1ccc2[nH]c3c(=O)n(CCC4=CCCCC4)cnc3c2c1
→ 3	4657	-8	-17	5.1	13	12
> COC(=O)[C@]1(Cc2ccccc2)N[C@H](CN(C)S(=O)(=O)c2ccc(OC(F)(F)F)cc2)[C@@H]2C(=O)N(C)C(=O)[C@@H]21
→ 4	3691	.	-20	2.6	-13	-1
> O=C(Nc1ccc(C(F)(F)F)cc1)c1cc(S(=O)(=O)NCC2COc3ccccc3O2)ccc1F (stereo unspecified)
→ -2	7528	1	-11	12	3	-3
> CCn1c(SCC(=O)Nc2ccccc2C(=O)OC)nnc1-c1ccoc1C
→ 2	4111	-9	-20	1.8	-3	0
> CC(C)CC(C(=O)Nc1oc(-c2ccco2)c(-c2ccco2)c1C#N)N1C(=O)c2ccccc2C1=O (stereo unspecified)
→ -1	4771	-6	-23	6.5	9	13
> O=C(O)c1ccc(N2C(=O)CC(SC(=NCc3ccc4c(c3)OCO4)Nc3ccc(F)cc3)C2=O)cc1 (stereo unspecified)
→ 1	4842	4	-18	8.4	-6	-2
> Cc1c(NC(=O)c2ccc(CN3CCc4ccccc4C3)cc2)c(=O)n(-c2ccccc2)n1C
→ -9	9230	-11	-16	3.9	8	7
> CC(=O)C1=C(C)NC(=O)NC1/C=C/c1ccccc1 (stereo unspecified)
→ -3	3230	2	-13	5.5	-12	-7
> Cc1ccc2[nH]cc(/C=C/c3cc[n+](C)cc3)c2c1
→ .	7946	7	-20	.	.	.
> Cc1ccccc1N1CCN(C2CCCN(C(=O)CCN3CCCO3)C2)CC1 (stereo unspecified)
→ -1	5581	-11	-5	2.0	-2	0
> COc1cccc(N2CCN(C(=O)CCCCCn3c(=S)[nH]c4cc5c(cc4c3=O)OCO5)CC2)c1
→ -7	4966	-2	-16	3.3	-3	3
> O=C(Nc1ccc(Cl)cc1)N1CCCC1
→ -12	22686*	-7	-7	-3.5	5	6
> CCOC(=O)C1Nc2ccc(C(F)(F)F)cc2C2C=CCC12 (stereo unspecified)
→ 2	2763	1	-5	4.6	3	9
> O=C1NC2CCCCC2C(=O)N1OS(=O)(=O)c1ccccc1 (stereo unspecified)
→ -1	3553	.	-2	2.1	-11	8
> N/C(=N\OC(=O)c1cccs1)c1cccnc1
→ -5	3795	-5	-28	0.8	12	0
> CCNC(=O)Nc1ccc(-n2nc(C)c(C(=O)OCC)c2C)nc1
→ 0	4425	-6	-25	12	14	11
> COc1ccc(OCC(=O)N(Cc2cccs2)C2CCS(=O)(=O)C2)cc1 (stereo unspecified)
→ 1	.	-1	-18	4.6	7	-7
> COc1ccc(OC)c(S(=O)(=O)NCCc2ccccc2)c1
→ 1	9228	2	-23	5.9	3	0
> COc1ccccc1NC(=O)CNC(=O)c1ccc([N+](=O)[O-])cc1
→ -1	3333	1	-2	4.1	-8	4
> CCn1c(SC(C)C(=O)OC)nnc1-c1c[nH]c2ccccc12 (stereo unspecified)
→ 20	5825	-5	-6	25	3	3

# Compound activity: PubChem BioAssay, several laboratories

# Compounds were not picked by outcome; about 4.1% have a hit in one of these screens.
